AF4-AF9 inh = inhibitors of AF4 peptide binding to AF9, primary screen, biochemical, AlphaScreen, biotin-AF4 peptide, FLAG-AF9, single point. Protein AF-9 (Homo sapiens), P42568. inhibition, % at 10 µM. actives 0.47% (n = 350,000);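 active = every replicate reaching a set inhibition limit, whatever the replicate mean, cut at about 25% in these data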;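 note: 0% = plate neutral control median and 100% = total signal loss; the record names both 10 and 1 µM as test concentration; the first replicate is given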
Target sequence (P42568 whole entry, looked up): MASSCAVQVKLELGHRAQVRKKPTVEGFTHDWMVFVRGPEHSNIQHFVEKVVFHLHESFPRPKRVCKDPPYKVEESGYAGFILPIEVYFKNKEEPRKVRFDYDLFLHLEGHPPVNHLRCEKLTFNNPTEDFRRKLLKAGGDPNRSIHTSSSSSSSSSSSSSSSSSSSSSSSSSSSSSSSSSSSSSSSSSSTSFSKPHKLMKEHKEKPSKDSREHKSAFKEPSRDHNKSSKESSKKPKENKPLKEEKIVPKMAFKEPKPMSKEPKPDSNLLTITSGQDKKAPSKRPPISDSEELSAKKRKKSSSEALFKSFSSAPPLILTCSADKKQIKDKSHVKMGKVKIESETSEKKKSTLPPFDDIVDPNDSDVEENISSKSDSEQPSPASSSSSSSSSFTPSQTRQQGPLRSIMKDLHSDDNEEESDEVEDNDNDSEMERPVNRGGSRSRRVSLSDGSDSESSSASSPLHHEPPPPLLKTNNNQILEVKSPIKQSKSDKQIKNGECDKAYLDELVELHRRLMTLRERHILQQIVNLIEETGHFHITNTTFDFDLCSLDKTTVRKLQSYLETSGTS
* = called active by the depositor; & = joins results of further samples. Not all compounds are listed. The share of hits here may be higher or lower than overall.

nr	compound	AF4-AF9 inh
1	COCC(=O)N[C@H]1C=C[C@@H](CC(=O)NCc2ccccc2OC)O[C@H]1CO	1.0
2	CC(C)[C@H]1COCn2nncc2CC[C@@H](Cc2ccccc2)C(=O)N1	10
3	CO[C@@H](CN(C)C(=O)Nc1ccc(Cl)cc1)[C@H](C)CN(Cc1ccccc1Cl)[C@@H](C)CO	3.9
4	O=C(N[C@@H]1C[C@@H]2O[C@@H](CO)CC[C@@H]2O[C@@H]1CCc1ccc(C#Cc2ccccc2)cc1)c1ccccn1	-3.3
5	COc1cccc(-c2ccc([C@@H]3[C@H](CO)N4C(=O)CN(C(=O)C5CCCC5)C[C@@H]34)cc2)c1	3.0
6	CN1C(=O)c2cc(NC(=O)Nc3ccccc3F)ccc2OC[C@H]2O[C@H](CC(=O)NCc3ccc(-c4ccccc4)cc3)CC[C@H]21	-2.9
7	C[C@H](CO)N1C[C@H](C)[C@H](CN(C)S(=O)(=O)c2cccs2)Oc2ncc(-c3ccc(F)cc3)cc2C1=O	-0.5
8	COc1ccccc1-c1cn(CC[C@@H]2CC[C@@H](NC(=O)C3CCC3)[C@@H](CO)O2)nn1	0.2
9	COc1ccc2c3c(n(C)c2c1)[C@@H](CO)N(Cc1ccccc1OC)CC31CN(C)C1	7.7
10	C[C@H]1CN([C@@H](C)CO)S(=O)(=O)c2ccc(C3=CCCCC3)cc2O[C@H]1CN(C)C(=O)c1ccncc1	1.5
11	CCCC#Cc1ccc2c(c1)O[C@@H](CN(C)C(=O)c1ccccn1)[C@@H](C)CN([C@H](C)CO)S2(=O)=O	0.9
12	Cn1cnc(S(=O)(=O)NC[C@H]2CC[C@H]3[C@H](CN3Cc3nccs3)O2)c1	-4.5
13	C[C@@H]1CCCCO[C@H](CN(C)C(=O)Nc2ccc3c(c2)OCO3)[C@H](C)CN([C@@H](C)CO)C(=O)c2cc(NC(=O)c3ccccc3)ccc2O1	1.6
14	O=C(C[C@H]1C=C[C@H](NC(=O)Nc2ccc3c(c2)OCO3)[C@@H](CO)O1)NCc1ccc2c(c1)OCO2	2.4
15	C[C@H](CO)N1C[C@H](C)[C@H](CN(C)S(=O)(=O)c2ccc(F)cc2)Oc2c(NS(=O)(=O)c3cn(C)cn3)cccc2C1=O	-16
16	CC(C)NC(=O)Nc1ccc2c(c1)C(=O)N([C@H](C)CO)C[C@@H](C)[C@H](CN(C)Cc1ccc(C(=O)O)cc1)O2	-0.1
17	CN1CCCCN2[C@H](CO)[C@@H](c3ccc(-c4ccccc4)cc3)[C@@H]2C1	-2.8
18	C/C=C/c1ccc([C@@H]2[C@H](CO)N(C(=O)C3CC3)C23CN(S(=O)(=O)CC)C3)cc1	3.7
19	C[C@H]1CN([C@@H](C)CO)C(=O)c2cc(C3=CCCCC3)cnc2O[C@H]1CN(C)Cc1ccc(C(=O)O)cc1	-6.5
20	O=C(Cc1ccccc1)NS(=O)(=O)c1ccccc1	-0.7
21	C[C@H](CO)N1C[C@H](C)[C@H](CN(C)C(=O)CN(C)C)Oc2ncc(-c3ccc(C#N)cc3)cc2C1=O	-3.1
22	C[C@@H]1CN([C@@H](C)CO)C(=O)c2cccc(NC(=O)Nc3ccc(F)cc3)c2O[C@H]1CN(C)Cc1ccc(Oc2ccccc2)cc1	2.6
23	C[C@@H]1CCCCO[C@H](CN(C)Cc2ccc(Cl)c(Cl)c2)[C@H](C)CN([C@@H](C)CO)C(=O)c2cc(NS(=O)(=O)c3ccccc3)ccc2O1	4.9
24	CCCC#Cc1ccc2c(c1)O[C@@H](CN(C)C(=O)CC)[C@@H](C)CN([C@@H](C)CO)S2(=O)=O	1.1
25	CCOC(=O)C1CCCN(C(=O)c2cc(F)cc(F)c2)CC1 (stereo not given)	-2.8
26	CO[C@H]1CN(C)C(=O)c2cc(NC(=O)CC(F)(F)F)ccc2OC[C@H](C)N(C(=O)C2CCCCC2)C[C@@H]1C	-0.2
27	COc1ccc(S(=O)(=O)N2C[C@@H](O)COC[C@@H]3O[C@@H](CC(=O)N[C@H]4CCN(Cc5ccccc5)C4)CC[C@H]32)cc1	2.8
28	C[C@@H]1CCCCO[C@H](CN(C)C)[C@@H](C)CN([C@@H](C)CO)C(=O)c2cc(NC(=O)Nc3ccc(F)cc3)ccc2O1	7.3
29	C[C@H](O)C#Cc1ccc2c(c1)O[C@H](CN(C)C)[C@H](C)CN([C@@H](C)CO)S2(=O)=O	-3.8
30	COc1ccc(-c2csc(C(NC(C)=O)c3ccccc3)n2)cn1 (stereo not given)	-1.9
31	CO[C@@H]1CN(C)C(=O)c2cc(NS(C)(=O)=O)ccc2OC[C@H](C)N(CC2CCCCC2)C[C@H]1C	-0.3
32	COc1ccc(S(=O)(=O)Nc2ccc3c(c2)C(=O)N([C@H](C)CO)C[C@H](C)[C@@H](CN(C)C(=O)CCC(F)(F)F)OCCCC[C@H](C)O3)cc1	-2.2
33	C[C@@H]1CCCCO[C@H](CN(C)C(=O)NC2CCCCC2)[C@@H](C)CN([C@@H](C)CO)C(=O)c2cc(NC(=O)C3CCCCC3)ccc2O1	2.6
34	Cc1ccc(S(=O)(=O)N(C)C[C@@H]2Oc3c(NS(=O)(=O)c4ccc(Cl)cc4)cccc3C(=O)N([C@H](C)CO)C[C@@H]2C)cc1	0.1
35	CCCNC(=O)[C@@H]1[C@@H](CO)[C@@H]2Cn3c(ccc(-c4ccccc4)c3=O)[C@H]1N2C(=O)Nc1ccccc1	-15
36	Cc1ccccc1S(=O)(=O)NCC[C@H]1CC[C@@H](NC(=O)C2CCCCC2)[C@@H](CO)O1	-1.6
37	COc1ccc2cc(/C=N/NC(=O)CN(c3ccccc3OC)S(=O)(=O)c3ccccc3)c(Cl)nc2c1	-3.9
38	CN(C)C(=O)c1ccc(-c2ccc(C3[C@@H]4CN(C(=O)C5CCOCC5)C[C@H]3N4)cc2)cc1 (stereo not given in full)	-6.3&-7.0
39	CO[C@H]1CN(C)C(=O)c2cc(NC(=O)Nc3ccc(Cl)cc3)ccc2OC[C@@H](C)N(C)C[C@@H]1C	-4.9
40	O=C(Cc1ccccc1)N[C@@H]1C=C[C@@H](CC(=O)N2CCCCC2)O[C@H]1CO	-19
41	O=C(C1CC1)N1CC[C@H]2[C@H](CO)Nc3ccc(Br)cc3[C@H]21	-3.5
42	N#C[C@@H]1[C@@H](c2ccc(/C=C/c3ccccc3)cc2)[C@@H](CO)N1C(=O)C1CCCCC1	0.4
43	COc1ccc2c3c([nH]c2c1)[C@@H](CO)N(Cc1ccccc1F)CC31CCN(S(C)(=O)=O)CC1	-0.5
44	CO[C@H]1CN(C)C(=O)c2cc(NC(=O)Nc3ccccc3)ccc2OC[C@@H](C)NC[C@@H]1C	-0.8
45	C[C@@H]1CN([C@@H](C)CO)C(=O)c2cc(-c3cncnc3)cnc2O[C@@H]1CN(C)Cc1ccncc1	-2.9
46	C[C@H](CO)N1C[C@H](C)[C@@H](CN(C)C(=O)CN(C)C)Oc2ncc(-c3ccc(C#N)cc3)cc2C1=O	-2.5
47	C[C@@H]1CN([C@H](C)CO)C(=O)c2cccc(NC(=O)Nc3ccccc3)c2O[C@H]1CN(C)C(=O)Nc1ccccc1	-2.6
48	CCCCN(C(C)=O)c1c(CC)nc2ccc(C(=O)NCCCN(C)C)cn12	-6.2
49	CCN(C(=O)CSc1nnc(-c2ccccc2Cl)n1N)c1c(N)n(Cc2ccccc2)c(=O)[nH]c1=O	-1.0
50	CC(C)CC#Cc1cnc2c(c1)C(=O)N([C@H](C)CO)C[C@@H](C)[C@@H](CN(C)C(=O)Cc1ccccc1)O2	-2.5
51	C[C@@H]1CN([C@H](C)CO)C(=O)c2cc(-c3ccccc3F)cnc2O[C@@H]1CN(C)C(=O)NC1CCCCC1	-1.0
52	CCNC(=O)[C@H]1[C@H](CO)[C@H]2Cn3c(ccc(-c4ccccc4)c3=O)[C@H]2N1CC	0.9
53	Cc1ccc(S(=O)(=O)Nc2ccc3c(c2)C(=O)N([C@H](C)CO)C[C@H](C)[C@@H](CN(C)S(=O)(=O)c2ccccc2)OCCCC[C@@H](C)O3)cc1	-1.5
54	COc1cccc(NC(=O)N2CC3(C2)[C@H](c2ccccc2)[C@H](CO)N3C(=O)C2CCCC2)c1	-0.8
55	C[C@H]1CN([C@@H](C)CO)C(=O)c2cc(-c3cccnc3)cnc2O[C@@H]1CN(C)C(=O)NC1CCCC1	-15
56	Cc1onc(-c2ccccc2)c1C(=O)N[C@@H]1C(=O)N2C1SC(C)(C)[C@@H]2C(=O)O (stereo not given in full)	-3.8
57	Cc1ccc(S(=O)(=O)Nc2ccc3c(c2)C(=O)N([C@@H](C)CO)C[C@@H](C)[C@H](CN(C)Cc2ccncc2)OCCCC[C@H](C)O3)cc1	-1.2
58	CC(C)NC(=O)Nc1ccc2c(c1)C(=O)N([C@H](C)CO)C[C@H](C)[C@H](CN(C)C(=O)Nc1ccccc1)O2	-3.4
59	COc1cccc(C#Cc2ccc([C@@H]3[C@@H](CO)N4C(=O)CN(C(=O)c5ccccc5)C[C@H]34)cc2)c1	1.8
60	O=C(N[C@@H]1CC[C@@H](CCn2cc(C3CCCC3)nn2)O[C@H]1CO)c1cccnc1	-0.3

Following part:
nr	compound	AF4-AF9 inh
61	CO[C@H]1CN(C)C(=O)c2ccc(NC(=O)Nc3cc(Cl)cc(Cl)c3)cc2OC[C@H](C)NC[C@H]1C	18
62	O=C(c1ccccc1Cl)N1CCSCCS1(=O)=O	-1.0
63	COc1ccc(S(=O)(=O)Nc2ccc3c(c2)CC(=O)N([C@@H](C)CO)C[C@H](C)[C@H](CN(C)S(=O)(=O)c2ccc(Cl)cc2)O3)cc1	2.3
64	CC(C)CN1C(=O)CSCC1(C)C(=O)NCc1ccccc1 (stereo not given)	0.0
65	C[C@@H]1CN([C@@H](C)CO)C(=O)Cc2cc(NC(=O)CCC(F)(F)F)ccc2O[C@H]1CN(C)S(=O)(=O)c1ccc(Cl)cc1	0.8
66	C[C@@H]1CN([C@@H](C)CO)C(=O)Cc2cc(NC(=O)NC3CCCCC3)ccc2O[C@@H]1CN(C)C(=O)Nc1ccc2c(c1)OCO2	0.2
67	CN1C(=O)c2cc(NC(=O)C3CCCCC3)ccc2OC[C@H]2O[C@@H](CC(=O)NC3CCCC3)CC[C@H]21	-0.7
68	C[C@@H]1CN([C@@H](C)CO)C(=O)c2cc(NS(C)(=O)=O)ccc2O[C@H]1CN(C)C(=O)Nc1ccc(F)cc1	-1.3
69	CCCc1c(-c2ccc(F)cc2F)ncn1Cc1ccccc1OC	2.8
70	CCOc1ccc(CCN2C(=S)N([C@@H](CC(C)C)CN3CCC[C@@H]3CN3C(=S)NC[C@@H]3CC(C)C)C[C@@H]2CC(C)C)cc1	4.8
71	COc1cccc(C(=O)Nc2ccc3c(c2)C(=O)N(C)C[C@@H](OC)[C@@H](C)CN[C@@H](C)CO3)c1	-4.7
72	CO[C@@H]1CN(C)C(=O)c2ccc(NS(=O)(=O)c3ccccc3)cc2OC[C@H](C)N(Cc2nccs2)C[C@@H]1C	3.8
73	CNc1cncc(-c2cc(OC)ccc2OC)n1	3.2
74	C[C@@H]1CCCCO[C@H](CN(C)C(=O)C2CCCCC2)[C@H](C)CN([C@H](C)CO)C(=O)c2cc(NC(=O)c3ccncc3)ccc2O1	-0.7
75	CC(=O)Nc1ccc(CN(C)c2c(C)nc3ccc(C(=O)NC4CCN(Cc5ccccc5)CC4)cn23)cc1	-3.4
76	O=C(C[C@@H]1C[C@@H]2c3cc(NC(=O)c4ccc5c(c4)OCO5)ccc3O[C@@H]2[C@H](CO)O1)NCc1ccccn1	-3.5
77	CN1CCN(C(=O)C[C@H]2CC[C@H]3[C@@H](COC[C@H](O)CN3C(=O)c3ccc(F)cc3)O2)CC1	-0.4
78	CC1(C(=O)NCc2ccc(Cl)cc2)CCN1C(=O)Cc1cccc2ccccc12 (stereo not given)	-2.7
79	COc1ccc(NC(=O)Nc2ccc3c(c2)CC(=O)N([C@H](C)CO)C[C@@H](C)[C@@H](CN(C)S(=O)(=O)c2ccc(F)cc2)O3)cc1	6.5
80	O=C(NCC[C@@H]1CC[C@@H](NS(=O)(=O)c2ccccc2)[C@@H](CO)O1)c1ccc2c(c1)OCO2	-1.2
81	CC(C)[C@@H]1COCc2cn(nn2)CC[C@H](C)C(=O)N1	-13
82	CN(C)C(=O)C[C@@H]1C=C[C@H](NC(=O)NC2CCCCC2)[C@H](CO)O1	0.0
83	FC(F)C(F)(F)Oc1cccc(Nc2nccn3c(-c4cccc5cccnc45)cnc23)c1	0.1
84	COCC#Cc1cnc2c(c1)C(=O)N([C@H](C)CO)C[C@@H](C)[C@H](CN(C)C(=O)Cc1ccncc1)O2	-2.3
85	O=C(c1cccc(F)c1)N1CC(=O)N2[C@H](C1)[C@H](c1ccc(C#Cc3ccc(F)cc3)cc1)[C@@H]2CO	-2.7
86	O=C(Nc1ccc(-c2ccccc2)cc1)[C@@H]1[C@@H](CO)[C@@H]2Cn3c(cccc3=O)[C@@H]2N1CC1CCOCC1	1.3

Some of the entries so far, field by field.
[57] Cc1ccc(S(=O)(=O)Nc2ccc3c(c2)C(=O)N([C@@H](C)CO)C[C@@H](C)[C@H](CN(C)Cc2ccncc2)OCCCC[C@H](C)O3)cc1
  AF4-AF9 inh = -1.2
[58] CC(C)NC(=O)Nc1ccc2c(c1)C(=O)N([C@H](C)CO)C[C@H](C)[C@H](CN(C)C(=O)Nc1ccccc1)O2
  AF4-AF9 inh = -3.4
[59] COc1cccc(C#Cc2ccc([C@@H]3[C@@H](CO)N4C(=O)CN(C(=O)c5ccccc5)C[C@H]34)cc2)c1
  AF4-AF9 inh = 1.8
[60] O=C(N[C@@H]1CC[C@@H](CCn2cc(C3CCCC3)nn2)O[C@H]1CO)c1cccnc1
  AF4-AF9 inh = -0.3

Bioassay records (PubChem)
